Bioassay records deposited in PubChem BioAssay by several laboratories.
RecA splice inh: Mtb RecA intein splicing inhibitors, primary screen, biochemical, fluorescence, HTS; hit rate 0.75% among 290,000; AID 2221, 2009; inhibition, %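 (about 9 µM by stock and volumes)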; Protein RecA (Mycobacterium tuberculosis (strain ATCC 25618 / H37Rv)), P9WHJ3; cell-free RecA intein splicing; in the data active means inhibition above about 30%;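 further: 0% = vehicle wells and 100% = reference inhibitor control wells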
Target sequence (P9WHJ3 whole entry, looked up, canonical isoform): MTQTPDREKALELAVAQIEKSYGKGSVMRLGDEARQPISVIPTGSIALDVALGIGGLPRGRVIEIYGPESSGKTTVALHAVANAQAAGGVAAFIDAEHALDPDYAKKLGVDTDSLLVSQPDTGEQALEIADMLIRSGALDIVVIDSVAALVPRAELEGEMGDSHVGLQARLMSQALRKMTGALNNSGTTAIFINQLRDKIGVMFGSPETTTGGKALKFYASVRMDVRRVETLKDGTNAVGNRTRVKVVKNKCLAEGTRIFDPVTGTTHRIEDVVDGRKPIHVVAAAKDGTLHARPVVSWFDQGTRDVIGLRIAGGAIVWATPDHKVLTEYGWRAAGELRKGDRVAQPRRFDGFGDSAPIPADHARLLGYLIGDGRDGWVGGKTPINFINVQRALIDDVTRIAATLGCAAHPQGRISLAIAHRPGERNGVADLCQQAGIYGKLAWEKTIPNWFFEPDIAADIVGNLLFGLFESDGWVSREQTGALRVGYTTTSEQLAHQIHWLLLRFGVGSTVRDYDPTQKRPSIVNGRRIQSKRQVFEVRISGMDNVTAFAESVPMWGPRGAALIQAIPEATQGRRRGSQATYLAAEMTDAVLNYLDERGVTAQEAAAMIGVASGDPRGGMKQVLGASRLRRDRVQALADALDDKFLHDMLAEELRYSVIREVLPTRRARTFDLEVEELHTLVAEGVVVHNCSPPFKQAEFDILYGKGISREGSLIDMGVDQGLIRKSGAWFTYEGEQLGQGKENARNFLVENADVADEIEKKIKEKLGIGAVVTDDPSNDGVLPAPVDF
Mtb H37Rv: M. tuberculosis H37Rv growth inhibitors, H37Rv strain (AID 1626) | inhibition, % at 10 µM; hits with a dose series show IC50 in µM | hit rate 0.95% among 220,000 | M. tuberculosis H37Rv growth inhibition; higher % means a stronger effect;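 active means confirmed in a dose series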;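 further: bacteria incubated seven days before Alamar blue readout; 0% = bacteria only wells and 100% = bacteria with antibiotic wells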
Arbovirus inh: antivirals against arbovirus infection, primary screen, cell-based, full library, 10K replicate subset | inhibition, % at 10 µM | arbovirus infection cell-based antiviral screen | hit rate 0.37% among 200,000 | AID 1251, 2008;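 active means inhibition from about 30%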;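 further: bluetongue infection of BSR cells; cell survival read as ATP light after 72 h; 0% = infected wells without compound and 100% = uninfected wells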
YopH PTP inh: YopH tyrosine phosphatase inhibitors, primary screen, biochemical, fluorescence Ex485/Em525 | inhibition, %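 (about 10 µM by stock and volumes)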 | hit rate 0.16% among 140,000 | YopH tyrosine phosphatase [Yersinia enterocolitica];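 active means inhibition of 50% or more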;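 further: controls were vehicle for no effect and minimum signal wells for full effect; inactives centre near -20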
Mtb bLac sens: beta-lactam sensitization of Mtb H37Rv, H37Rv | M. tuberculosis H37Rv growth with meropenem, percent inhibition; hits of this screen are not shown here | inhibition, % at 25 µM | hit rate 0.27% among 330,000 | AID 434955, 2010;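 active means about 74% or more and at least 40 points above the plate without the antibiotic, then above 30% in a dose series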;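 further: growth measured after seven days incubation then overnight dye step; 0% = bacteria only wells and 100% = bacteria with antibiotic; twin plates without the antibiotic show which effects depend on it; some results filed as inactive read as strong as hits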
Starred values were filed as active, the others as inactive. Not all compounds are listed. The share of hits here may be higher or lower than overall.

How did COc1ccc(CNC(=O)CN(Cc2ccc(F)cc2)C(=O)CCC(=O)Nc2nccs2)cc1 do in these assays?
RecA splice inh: -0.6; Mtb bLac sens: -3

How did CSc1cccc(NC(=O)N2CCc3ccc(NC(=O)c4ccccn4)cc3C2)c1 do in these assays?
RecA splice inh: 2.6; Mtb bLac sens: 98

What do the screens show for `CCC(C)(C)NC(=O)Cc1ccc(F)cc1`?
RecA splice inh: 1.9; Mtb H37Rv: 6%; Arbovirus inh: 2; Mtb bLac sens: -5

How did O=C(/C=C/Nc1ccc(F)c(Cl)c1)c1ccccc1 do in these assays?
RecA splice inh: -0.3; Mtb bLac sens: -8

How did CCOC(=O)c1cc(OC(=O)c2ccccc2)n(-c2ccccc2)n1 do in these assays?
RecA splice inh: -1.7; Mtb H37Rv: -5%; Arbovirus inh: -6; YopH PTP inh: -25; Mtb bLac sens: 3

Results for O=C(/C=C/c1ccc(Cl)cc1)NC(=S)NN1CCCCC1c1cccnc1 (stereo not drawn) ?
RecA splice inh: 4.8; Mtb H37Rv: -6%; Arbovirus inh: -1; YopH PTP inh: -36; Mtb bLac sens: -2

How did Cc1cc(NC(=O)CSc2nc(N)c(NC(=O)c3ccccc3)c(=O)[nH]2)no1 do in these assays?
RecA splice inh: -2.8; Mtb H37Rv: -1%; Arbovirus inh: 7; Mtb bLac sens: 0

Results for Cc1cc(-c2ccc(Cl)cc2)c2cnn(C(C)C)c2n1 ?
RecA splice inh: -2.4; Mtb bLac sens: 99

How did CCC(C)c1ccc(NS(=O)(=O)c2c(C)[nH]c(=O)[nH]c2=O)cc1 (stereo not drawn) do in these assays?
RecA splice inh: -1.3; Mtb bLac sens: 4

Results for O=C(c1ccc2c(=O)n3c(nc2c1)CCCCC3)N1CCN(c2ccccc2)CC1 ?
RecA splice inh: -1.8; Mtb H37Rv: 0%; Mtb bLac sens: -8

Results for O=C(Nc1ccc(N2CCN(C(=O)c3ccco3)CC2)cc1)c1ccc(F)cc1 ?
RecA splice inh: 14; Mtb H37Rv: -4%; Arbovirus inh: -1; YopH PTP inh: -32; Mtb bLac sens: 49

What do the screens show for `Cn1c(N2CCN(S(=O)(=O)c3ccc(F)cc3)CC2)nc2ccccc21`?
RecA splice inh: 7.4; Mtb H37Rv: -7%; Arbovirus inh: -8; Mtb bLac sens: -3

What do the screens show for `COC(=O)CN1C(=O)COc2ccc(S(=O)(=O)N3CCOCC3)cc21`?
RecA splice inh: -1.0; Mtb bLac sens: 1

How did O=C(CSc1nc(-c2ccccc2)c(-c2ccccc2)o1)Nc1nnc(-c2ccccc2)s1 do in these assays?
RecA splice inh: 3.2; Arbovirus inh: 29; YopH PTP inh: -10; Mtb bLac sens: 13

How did Cn1cccc1-c1cc(C(=O)N/N=C/c2cccc(O)c2)[nH]n1 do in these assays?
RecA splice inh: 3.2; Mtb H37Rv: 0%; Arbovirus inh: -2; Mtb bLac sens: -1

What do the screens show for `COc1ccccc1CCC(=O)Nc1cc(S(=O)(=O)N2CCCCC2)ccc1N1CCN(C)CC1`?
RecA splice inh: -0.7; Mtb bLac sens: 6

How did CN(Cc1ccccc1)C(=O)CN1C(=O)c2ccc([N+](=O)[O-])cc2C1=O do in these assays?
RecA splice inh: -13; Mtb bLac sens: -13

How did O=c1[nH][nH]c(C(F)(F)F)c1C=NCc1cccc(Cl)c1 do in these assays?
RecA splice inh: -2.9; Mtb H37Rv: -4%; Arbovirus inh: 6; YopH PTP inh: -18; Mtb bLac sens: 15

Results for COc1cccc(CN2CCCCC2c2cccnc2)c1 (stereo not drawn) ?
RecA splice inh: 0.0; Mtb H37Rv: -8%; Arbovirus inh: 12; YopH PTP inh: -5; Mtb bLac sens: -10

How did O=C1CN(C(=O)COc2ccccc2)c2ccccc2N1 do in these assays?
RecA splice inh: -1.1; Mtb bLac sens: -10

Copied from the listing for reference:
What do the screens show for `COc1ccccc1CCC(=O)Nc1cc(S(=O)(=O)N2CCCCC2)ccc1N1CCN(C)CC1`?
RecA splice inh: -0.7; Mtb bLac sens: 6

How did CN(Cc1ccccc1)C(=O)CN1C(=O)c2ccc([N+](=O)[O-])cc2C1=O do in these assays?
RecA splice inh: -13; Mtb bLac sens: -13

How did O=c1[nH][nH]c(C(F)(F)F)c1C=NCc1cccc(Cl)c1 do in these assays?
RecA splice inh: -2.9; Mtb H37Rv: -4%; Arbovirus inh: 6; YopH PTP inh: -18; Mtb bLac sens: 15

Results for COc1cccc(CN2CCCCC2c2cccnc2)c1 (stereo not drawn) ?
RecA splice inh: 0.0; Mtb H37Rv: -8%; Arbovirus inh: 12; YopH PTP inh: -5; Mtb bLac sens: -10

How did O=C1CN(C(=O)COc2ccccc2)c2ccccc2N1 do in these assays?
RecA splice inh: -1.1; Mtb bLac sens: -10

Additional compounds
What do the screens show for `FC(F)(F)c1cc(-c2ccccc2)nc(N2CCCCCC2)n1`?
RecA splice inh: 3.0; Mtb H37Rv: 7%; Arbovirus inh: -24; YopH PTP inh: -16; Mtb bLac sens: 5

How did Cc1c(C)c(C)c(S(=O)(=O)Nc2ccc3[nH]c(=O)[nH]c3c2)c(C)c1C do in these assays?
RecA splice inh: -3.5; Mtb bLac sens: 5

What do the screens show for `Cc1nc2c(ncn2-c2ccccc2)c(=O)n1NC(=O)CN1CCCC1`?
RecA splice inh: 0.7; Mtb H37Rv: -1%; Mtb bLac sens: 13

What do the screens show for `Cc1c(N=Nc2ccc(N(C)C)cc2)c(=O)n(-c2ccccc2)n1C`?
RecA splice inh: -4.6; Mtb H37Rv: -3%; Arbovirus inh: -2

Results for COc1cc(C(=O)N/N=C/c2ccc(OC(=O)c3ccccc3Cl)cc2)ccc1O ?
RecA splice inh: 18; Mtb bLac sens: 72

What do the screens show for `CCC(=O)N(Cc1cc2ccccc2[nH]c1=O)c1ccc(OC)cc1`?
RecA splice inh: -2.3; Mtb H37Rv: 2%; Arbovirus inh: -3; Mtb bLac sens: -2

Results for COC(=O)c1ccccc1NC(=S)NC(=O)COc1ccc(C)cc1 ?
Mtb H37Rv: 1%; YopH PTP inh: -30; Mtb bLac sens: -2

How did Cc1nn(CCCC(=O)Nc2ccccn2)c(C)c1[N+](=O)[O-] do in these assays?
RecA splice inh: 0.5; Mtb H37Rv: 0%; Arbovirus inh: -4; Mtb bLac sens: -2

Results for O=C(NCC(O)COc1ccc([N+](=O)[O-])cc1)Nc1ccccc1 (stereo not drawn) ?
RecA splice inh: 1.6; Mtb H37Rv: -8%; Mtb bLac sens: -6

How did CNC(=O)C1CCN(S(=O)(=O)c2c(C)noc2/C=C/c2ccc(OC)cc2)CC1 do in these assays?
RecA splice inh: -0.9; Mtb bLac sens: -2

What do the screens show for `Cc1ccc(N(C(=O)CNC(=O)c2ccco2)C(C(=O)NC2CCCC2)c2cccnc2)c(C)c1` (stereo not drawn)?
RecA splice inh: 0.3; Mtb bLac sens: -5

Results for COCCn1nnnc1C(CC(C)C)N1CCN(C(=O)c2ccco2)CC1 (stereo not drawn) ?
RecA splice inh: -1.4; Mtb H37Rv: 10%; Arbovirus inh: 11; YopH PTP inh: -19

How did COC(=O)CSC1=C(C#N)C(c2ccccc2F)CC(=O)N1 (stereo not drawn) do in these assays?
RecA splice inh: -2.2; Mtb H37Rv: 2%; Arbovirus inh: -2; Mtb bLac sens: -5

How did O=C(CCn1c(=O)sc2ccccc21)Nc1nccs1 do in these assays?
RecA splice inh: -2.3; Mtb H37Rv: -5%; Arbovirus inh: -3; YopH PTP inh: -27; Mtb bLac sens: 6

What do the screens show for `COc1ccc(-n2nc3c(c2NC(=O)c2cc4ccccc4o2)CS(=O)(=O)C3)cc1`?
RecA splice inh: 1.7; Mtb bLac sens: 1

How did Cc1ccccc1C(=O)N1CCN(c2ncnc3c2cnn3-c2ccccc2)CC1 do in these assays?
RecA splice inh: 6.5; Mtb H37Rv: 7%; Arbovirus inh: 17; YopH PTP inh: -11; Mtb bLac sens: 5

What do the screens show for `Cc1ccc(-n2c(O)c(C=NCCN3CCOCC3)c(=O)[nH]c2=O)cc1`?
RecA splice inh: -9.9; Mtb H37Rv: 3%; Arbovirus inh: 4; YopH PTP inh: 2; Mtb bLac sens: 3

How did COc1ccc(CNC(=O)C2CCN(S(=O)(=O)N3CCCCC3)CC2)c(OC)c1 do in these assays?
RecA splice inh: -0.7; Mtb bLac sens: 3

What do the screens show for `CC1(C)C2CC=C(/C=N/NC(=S)Nc3cccnc3)C1C2` (stereo not drawn)?
RecA splice inh: 0.6; Mtb H37Rv: 9%; Arbovirus inh: -2; Mtb bLac sens: 2

Results for CC(C)C[C@@H](CSc1ccc(Br)cc1)N1CCN(C)CCC1=O ?
RecA splice inh: 1.8; Mtb H37Rv: -9%; Mtb bLac sens: -9

Three entries from above, sorted by number of heavy atoms, rising.
How did O=C(CCn1c(=O)sc2ccccc21)Nc1nccs1 do in these assays?
RecA splice inh: -2.3; Mtb H37Rv: -5%; Arbovirus inh: -3; YopH PTP inh: -27; Mtb bLac sens: 6

How did COC(=O)CSC1=C(C#N)C(c2ccccc2F)CC(=O)N1 (stereo not drawn) do in these assays?
RecA splice inh: -2.2; Mtb H37Rv: 2%; Arbovirus inh: -2; Mtb bLac sens: -5

Results for CC(C)C[C@@H](CSc1ccc(Br)cc1)N1CCN(C)CCC1=O ?
RecA splice inh: 1.8; Mtb H37Rv: -9%; Mtb bLac sens: -9

Next section:
Results for CC(Nc1c[nH]c(=O)[nH]c1=O)c1ccccc1 (stereo not drawn) ?
RecA splice inh: 61*; Mtb bLac sens: 10

Results for CC(C)(C)c1ccc(OCC(=O)NCCN2CCOCC2)cc1 ?
RecA splice inh: -1.2; Mtb bLac sens: 3

How did COc1ccc(CCN2C(=O)CN(Cc3ccccc3)CC2=O)cc1OC do in these assays?
RecA splice inh: 0.2; Mtb H37Rv: 2%; Arbovirus inh: 2; YopH PTP inh: -18; Mtb bLac sens: 3

How did Cc1ccccc1P(=O)(CO)c1ccccc1C do in these assays?
RecA splice inh: -3.2; Mtb H37Rv: 1%; Arbovirus inh: 9; YopH PTP inh: -31; Mtb bLac sens: -9

Results for CC(C)Oc1ccc(C(=O)CCN2CCCCC2)cc1 ?
Mtb H37Rv: -3%; Arbovirus inh: -1; YopH PTP inh: 6; Mtb bLac sens: 2

What do the screens show for `O=C(Nc1cc([N+](=O)[O-])ccc1O)c1ccc2c(c1)C(=O)N(Cc1ccco1)C2=O`?
RecA splice inh: 4.3; Mtb bLac sens: -5

What do the screens show for `Cc1ccc(-c2nn(C)c(=O)c3ccccc23)cc1CNS(C)(=O)=O`?
RecA splice inh: 2.0; Mtb H37Rv: -11%; Arbovirus inh: -2; YopH PTP inh: 0; Mtb bLac sens: -7

How did CCOC(=O)N1CCC(NC(=O)C(NS(=O)(=O)c2cccc3nsnc23)c2ccccc2)CC1 (stereo not drawn) do in these assays?
RecA splice inh: -0.4; Mtb H37Rv: 2%; Arbovirus inh: 2; Mtb bLac sens: -1

Results for CCN(CC)S(=O)(=O)c1cccc(-c2nnc(SCC(=O)c3cc(C)n(C4CC4)c3C)o2)c1 ?
RecA splice inh: -1.4; Mtb H37Rv: -3%; Mtb bLac sens: -6

What do the screens show for `CC(=O)Nc1c([N+](=O)[O-])cc2[nH]c(=O)[nH]c2c1[N+](=O)[O-]`?
RecA splice inh: 5.6; Mtb H37Rv: -5%; Arbovirus inh: 0; Mtb bLac sens: 3

What do the screens show for `Cc1cc(=O)oc2c1c(C)nn2-c1cccc(Cl)c1`?
RecA splice inh: 1.3; Mtb H37Rv: 4%; Arbovirus inh: 1; Mtb bLac sens: -1

What do the screens show for `Cc1ccc(N2CC(C(=O)Nc3ccncc3)CC2=O)cc1` (stereo not drawn)?
Mtb H37Rv: -11%; Arbovirus inh: 2; YopH PTP inh: -15; Mtb bLac sens: -7

What do the screens show for `CN(Cc1nc2ccccc2c(=O)[nH]1)c1ccccc1`?
RecA splice inh: -3.8; Mtb H37Rv: -3%; Arbovirus inh: -1; YopH PTP inh: -25; Mtb bLac sens: 4

Results for Cc1ccc(-c2cc(C(=O)Nc3ccc(S(=O)(=O)Nc4onc(C)c4C)cc3)c3ccccc3n2)cc1 ?
RecA splice inh: 8.6; Mtb H37Rv: -7%; Arbovirus inh: 16; Mtb bLac sens: 39

What do the screens show for `Cc1nc(NC(=O)C2CCCCC2C(=O)O)sc1C` (stereo not drawn)?
RecA splice inh: 0.4; Mtb bLac sens: 3

What do the screens show for `O=C(CCn1c(=O)c2cccn2c2cccnc21)N1CCN(c2cccc(Cl)c2)CC1`?
RecA splice inh: 2.2; Mtb bLac sens: 91

What do the screens show for `Cn1ccnc1-c1nnn(-c2ccc(Cl)c(Cl)c2)n1`?
RecA splice inh: 1.6; Mtb H37Rv: 31%; Mtb bLac sens: 96

Results for O=C(NCCCO)c1ccc2[nH]c3c(c2c1)CCCC3 ?
RecA splice inh: -14; Mtb H37Rv: -11%; Arbovirus inh: -5; YopH PTP inh: 2; Mtb bLac sens: 11

How did Cc1ccc(/C=C2/SC(=S)N(CCC(=O)N3CCN(c4ccccc4)CC3)C2=O)cc1 do in these assays?
RecA splice inh: -1.2; Arbovirus inh: 3; YopH PTP inh: -14
